NPYLR7 ag: agonists of mosquito NPYLR7 receptor, primary screen, cell-based, Aedes aegypti, calcium fluorescence, mosquito biting behavior; Aedes aegypti neuropeptide Y-like receptor 7 (NPYLR7); HEK293T NPYLR7/Galpha15, GCaMP6s calcium fluorescence; activation, % at 10 µM; hit rate 0.15% among 270,000; in the data active means activation above about 40%;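 further: 0% = vehicle and 100% = reference agonist at the receptor; some compounds past the cut are filed as inactive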
NPYLR7 ag max-min: recorded beside NPYLR7 ag, whose call it bears; activation, %; measured here: Max-Min RFU normalised activation; some inactives read as strong as hits;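 span of the calcium signal over five minutes; 0% = vehicle and 100% = native peptide agonist; compound fluorescence can raise it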
The depositor's hits bear a star; & = joins results of further samples. The list is partial, so the mix of outcomes need not match the whole.

No.	smiles	NPYLR7 ag	NPYLR7 ag max-min
1	O=C(c1ccccc1Cl)N(Cc1ccccc1F)N1C(=O)C2CCCCC2C1=O (centres undefined)	-10	-17
2	O=C(CC1C(=O)NC2(CCCC2)CN1Cc1ccc(Cl)cc1)NCc1nc2ccccc2s1 (centres undefined)	17	6
3	O=C(c1cn(Cc2ccccc2Cl)nn1)N1CCSCC1	21	6
4	CC(C(=O)NCc1ccccc1OCCO)c1ccc(Cl)s1 (centres undefined)	7	4
5	Cc1ccc(-c2nn(CC(=O)Nc3ccccc3F)c(=O)c3nc(C)sc23)c(C)c1	1	-1
6	CCc1nc2ccc(C(=O)N3CCN(S(=O)(=O)CC)CC3)cn2c1N(C)Cc1cccs1	1	-8
7	C=CCN1C[C@@H]2C[C@@H](C(=O)NC)N(C(=O)CC3CCCC3)c3cccc(c32)C1=O	4	7
8	Cc1cc(Nc2ccccc2)nc(N2CCN(C(=O)C3CCCCC3)CC2)n1	2	-2
9	Cc1ccc(CCNC(=O)C2CCC(=O)N(Cc3ccccn3)C2)o1 (centres undefined)	-1	-4
10	COCCCN(C)C(=O)NC(C)c1nc(C(C)(C)C)cs1 (centres undefined)	-3	-6
11	CCOC(=O)c1cc(-c2cccc(NC(=O)C3CCCCC3)c2)n(-c2ccccn2)n1	21	9
12	CC=CCn1c(=O)c2c(nc3n2CC(C)=NN3Cc2ccccc2C)n(C)c1=O	27	17
13	CO[C@H]1C(=O)N(C)C2(CCN(C(=O)OCC(C)(C)C)CC2)[C@@H]1C(=O)Nc1ccccc1	26	33
14	OC(CN1CCOCC1)CN(Cc1ccccc1)CC1CC(c2ccc(Cl)cc2)=NO1 (centres undefined)	-4	-3
15	O=C(c1ccc(OC(F)F)cc1)N1CCOC(COCc2ccccc2F)C1 (centres undefined)	25	12
16	COC(=O)c1cnc(NC(=O)C2(C)CCN2C(=O)C(C)C)s1 (centres undefined)	5	2
17	CCOC(=O)C1(C)CCN1C(=O)c1ccccc1 (centres undefined)	6	4
18	CC1(C(=O)NS(C)(=O)=O)CCN1C(=O)Cc1ccsc1 (centres undefined)	0	-1
19	Cc1nc2c(c(N3CC(C)OC(C)C3)n1)CN(C(=O)Nc1ccc(Br)cc1)CC2 (centres undefined)	-8	-8
20	Cc1c(C(=O)N(C)C)cnc2c(-c3ccc(C(C)C)cc3)cnn12	8	-1
21	O=C(c1ccc[nH]1)N1CCCC(CCc2ccc(F)cc2F)C1 (centres undefined)	5	3
22	COc1cccc(-c2c(C#N)c(N)nc3c2c(C)nn3-c2ccccc2)c1O	-2	-2
23	C=CCOC(CN1CCN(C(=O)c2c(Cl)cccc2Cl)CC1)c1cccc(N2CCCC2)c1 (centres undefined)	4	-3
24	CN(C)c1ccccc1N(C)Cc1nnc(C2CCC2)o1	5	3
25	CCCCN(C(C)=O)c1c(CC)nc2ccc(C(=O)NCCCn3ccnc3)cn12	-7	-11
26	CCOc1ccc2nc(Nc3nc(C)cc(C(F)(F)F)n3)nc(C)c2c1	5&1	4&-2
27	Cn1nnnc1SCc1ccc(CSc2nnnn2C)cc1	-3	-8
28	CC(C)Nc1ccc(C(=O)NCCc2cccc(Cl)c2)cn1	22	12
29	c1ccc(C(c2ccccc2)c2nc(-c3ccncc3)no2)cc1	12	10
30	CCc1ccc(S(=O)(=O)Nc2cccc(-c3ccc4nncn4n3)c2)s1	-10	-3
31	Cc1cnc(NC(=O)CCOc2cccc(Br)c2)s1	-1	-1
32	Cc1cc(C(=O)N2CCCC(CCc3c(F)cccc3F)C2)no1 (centres undefined)	8	1
33	C=CCc1cccc2cc(C(=O)NCc3ccco3)c(=O)oc12	0	-4
34	COC(=O)c1c(C)[nH]c(C(=O)N2CCCc3c(NC(C)=O)cccc32)c1C	-7	-9
35	Fc1ccccc1NC(=S)NCC1COc2ccccc2O1 (centres undefined)	6	3
36	Cc1cc(C)c2c(=O)[nH]c(SCc3ccccc3C)nc2n1	2	0
37	COC(=O)c1c(O)nc2ccccn2c1=O	-4	-4
38	O=C(NC1CCCCC1)c1cc(-c2ccc(F)cc2)n2nc(-c3ccccc3)cc2n1	13	8
39	COc1cccc(CSc2nnc(NC(=O)c3cccc(Cl)c3)s2)c1	23	16
40	O=C(NCCn1nc(-c2ccccc2)ccc1=O)Nc1ccccc1F	7	5
41	c1ccc2c(c1)CCN2c1nc2ccccc2n2cnnc12	6	4
42	CCc1nc2n(n1)C(=O)C(C(c1cccc(Br)c1)N1CCN(CCO)CC1)S2 (centres undefined)	-5	-12
43	O=C(Nc1c(-c2ccccc2)nc2ccccn12)c1ccc(-c2ccccc2)cc1	-3	5
44	Cc1cccc(N2CCN(CC3(O)CCCN(CC4CCC4)C3=O)CC2)n1 (centres undefined)	5	-1
45	CCOC(=O)CC1CCCCN1C(=O)Nc1cccc(SC)c1 (centres undefined)	6	3
46	c1cn(CCCn2ccnc2-c2cnc[nH]2)cn1	7	5
47	CC(C)c1csc(CN2CCN(c3ccc(C(N)=O)cn3)CC2)n1	1	-2
48	O=C(Cn1cnc2sc3c(c2c1=O)CCC3)N1CCCC1	7	8
49	CCN(CC)c1ccc(CN(C(=O)COC)C(C)C)c(OS(=O)(=O)c2ccc(OC)cc2)c1	14	16
50	CCC(C)N(C)C(=O)NCCc1ccc(S(C)(=O)=O)cc1 (centres undefined)	9	8

In another format: entries from further up.
Each structure is followed by: NPYLR7 ag, NPYLR7 ag max-min
[30] CCc1ccc(S(=O)(=O)Nc2cccc(-c3ccc4nncn4n3)c2)s1
  -10, -3
[31] Cc1cnc(NC(=O)CCOc2cccc(Br)c2)s1
  -1, -1
[32] Cc1cc(C(=O)N2CCCC(CCc3c(F)cccc3F)C2)no1 (centres undefined)
  8, 1
[33] C=CCc1cccc2cc(C(=O)NCc3ccco3)c(=O)oc12
  0, -4
[34] COC(=O)c1c(C)[nH]c(C(=O)N2CCCc3c(NC(C)=O)cccc32)c1C
  -7, -9
[35] Fc1ccccc1NC(=S)NCC1COc2ccccc2O1 (centres undefined)
  6, 3
[36] Cc1cc(C)c2c(=O)[nH]c(SCc3ccccc3C)nc2n1
  2, 0
[37] COC(=O)c1c(O)nc2ccccn2c1=O
  -4, -4
[38] O=C(NC1CCCCC1)c1cc(-c2ccc(F)cc2)n2nc(-c3ccccc3)cc2n1
  13, 8
[39] COc1cccc(CSc2nnc(NC(=O)c3cccc(Cl)c3)s2)c1
  23, 16
[40] O=C(NCCn1nc(-c2ccccc2)ccc1=O)Nc1ccccc1F
  7, 5
[41] c1ccc2c(c1)CCN2c1nc2ccccc2n2cnnc12
  6, 4
[42] CCc1nc2n(n1)C(=O)C(C(c1cccc(Br)c1)N1CCN(CCO)CC1)S2 (centres undefined)
  -5, -12
[43] O=C(Nc1c(-c2ccccc2)nc2ccccn12)c1ccc(-c2ccccc2)cc1
  -3, 5
[44] Cc1cccc(N2CCN(CC3(O)CCCN(CC4CCC4)C3=O)CC2)n1 (centres undefined)
  5, -1
[45] CCOC(=O)CC1CCCCN1C(=O)Nc1cccc(SC)c1 (centres undefined)
  6, 3
[46] c1cn(CCCn2ccnc2-c2cnc[nH]2)cn1
  7, 5
[47] CC(C)c1csc(CN2CCN(c3ccc(C(N)=O)cn3)CC2)n1
  1, -2
[48] O=C(Cn1cnc2sc3c(c2c1=O)CCC3)N1CCCC1
  7, 8
[49] CCN(CC)c1ccc(CN(C(=O)COC)C(C)C)c(OS(=O)(=O)c2ccc(OC)cc2)c1
  14, 16
[50] CCC(C)N(C)C(=O)NCCc1ccc(S(C)(=O)=O)cc1 (centres undefined)
  9, 8

Next part.
No.	smiles	NPYLR7 ag	NPYLR7 ag max-min
51	COc1ccc(-n2c(SCC(=O)NCC3CCCO3)nc3c([nH]c4ccccc43)c2=O)cc1OC (centres undefined)	-7	-7
52	Cc1nc(-n2nc(-c3ccco3)cc2NC(=O)c2ccc(F)c(F)c2)[nH]c(=O)c1C	-2	-4
53	COc1cc(-c2cncc(NC(C)=O)n2)ccc1O	4	1
54	CC(C)Oc1ccccc1C(=O)N(C)c1ccc(Br)cn1	7	-2
55	CC(C)(C)CC(C)(C)NC(=O)c1ccc(C#N)cc1	1	-1
56	Cc1ccc(-n2nc3c(c2NC(=O)c2cc(C)cc(C)c2)CS(=O)C3)cc1 (centres undefined)	-1	-2
57	CCOC(=O)CNc1c(-c2ccc(O)cc2)nc2cc(C)ccn12	32	36
58	Cn1ccnc1-c1nccn1-c1ccc(OCC2CCCO2)cc1 (centres undefined)	26	13
59	Cc1cc(C)c2[nH]c(C)c(CC(=O)NCCSc3ncn[nH]3)c2c1	-1	17
60	CO[C@H](c1ccccc1)c1n[nH]c(CCc2ccccc2)n1	27	14
61	CC(=O)NCCNC(=O)c1ccc2nc(C)c(N(C)CC3CCCCC3)n2c1	-5	-12
62	COc1ccc(C(=O)N2CC(=O)N3CCc4cc(F)ccc4C3C2)cc1OC (centres undefined)	27	32
63	COc1ccccc1C(=O)NN=C1N=NC(C)C(=O)N1 (centres undefined)	12	11
64	Cc1nonc1C(=O)N1CCc2c([nH]c3ccccc23)C1C1CCCCC1 (centres undefined)	3&-8	0&-14
65	O=C1[C@H](CCC(O)c2ccc(F)cc2)[C@@H](c2ccc(O)cc2)N1c1ccc(F)cc1 (some centres undefined)	-2	-13
66	O=C(CSc1ccc2nnc(-c3ccccn3)n2n1)N1CCCCC1	1	1
67	Cc1ccccc1-c1noc(Cn2ccn3nc(-c4cccs4)cc3c2=O)n1	-2	-2
68	N#CC1(C#N)[C@@H]2c3ccccc3C=CN2[C@@H](C(=O)c2ccc(F)cc2)[C@@H]1c1cccc(F)c1	12	3
69	Cc1cccnc1CC(C)NC(=O)C1(c2ccccc2F)CC1 (centres undefined)	15	10
70	O=C(Nc1ccc(Oc2ccccc2)cc1)C1CC(=O)N(C2CC2)C1 (centres undefined)	2	-1
71	NC(=O)[C@@H]1CCCN1C(=O)c1cccc(N)c1Nc1ccccc1	-1	-4
72	Cc1oc(C)c(-c2ccoc2)c1C(=O)Nc1ccc2ncsc2c1	2	1
73	CCCN1CCN(C(=O)c2cn(CC3CCCO3)cc3c(=O)n(-c4ccccc4)nc2-3)CC1 (centres undefined)	-3	-6
74	CCN(CC)C(=O)Cn1cc(SCc2ccccc2)c2ccccc21	-2	-7
75	CC(=O)Nc1ccc(S(=O)(=O)N2CCC[C@@H]2C(=O)NCCCNC(=O)c2ccccc2)cc1	20	31
76	OCCOc1ccccc1O	2	1
77	COCC(=O)N1CCN(c2ncnc3c2nnn3-c2ccc(OC)cc2)CC1	-9	-15
78	CCCCNC(=O)CN1CCN(C(=O)Cn2c(=O)nc(-c3ccccc3)c3ccccc32)CC1	-4	-4
79	CCOC(=O)Cn1ncc2c1CCN(C(=O)CC(C)(O)C(F)(F)F)C2 (centres undefined)	2	27
80	Cc1cn(CC(=O)N(C)Cc2ccccn2)c2ccccc12	11	6
81	CC1CCC(NS(=O)(=O)CCn2cnc3ccccc32)CC1 (centres undefined)	-5	-6
82	Cc1oc2ccc(O)c(CN3CCOCC3)c2c1C(=O)NC1CCCC1	13	8
83	O=C(O)c1ccc(-c2ccccc2CN2CCOCC2)cc1Cl	8	7
84	CC1CCC(NC(=O)CN2CCC(c3nc4ccccc4o3)CC2)CC1 (centres undefined)	1	-1
85	Cc1nn(CN2CCCC2c2cccs2)c(C)c1S(=O)(=O)N1CCCCC1 (centres undefined)	-1	6
86	C=Cc1ccc(CC2(C)C(=O)Nc3ccc(OC)cc32)cc1 (centres undefined)	7	5
87	O=C(NCc1cc(C(F)(F)F)ccc1F)c1cc(-c2ccc3c(c2)OCO3)nc2ccccc12	5	6
88	Cc1cccc(C)c1Oc1ncccc1CNC(=O)Cc1ccn(C)c1	0	-2
89	CCn1nc(C)cc1C(=O)Nc1ccc(NCc2ccccn2)cc1	-5	-4
90	c1ccc(-c2nc3c(c(NCc4cn5c(n4)SCC5)n2)CCNC3)cc1	14	-2
91	COc1ccc(C(=O)Nc2c(C)nc3scc(C)n3c2=O)cc1	8	2
92	CCCCn1c(N)c(N(C)CC(=O)N2c3ccccc3CC2C)c(=O)[nH]c1=O (centres undefined)	0	0
93	Nc1ncnc(NN=Cc2ccc3ncccc3c2)c1[N+](=O)[O-]	8	10

Compound activity deposited in PubChem by Fisher Drug Discovery Resource Center.
